# Assay outcomes from PubChem BioAssay.
# FGF22 binding: binders of human FGF22 protein, primary screen, FGF22 synaptogenesis inhibitor project, biophysical, thermal shift, single point | AID 651658, 2012 | Fibroblast growth factor 22 (Homo sapiens), Q9HCT0 | recombinant FGF22 thermal shift, SYPRO orange fluorescence; percent of sucrose octasulfate shift, DMSO zero | 340,000 compounds, 1.5% hits | calls only at 9.99 µM;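 active = melting point raised past a set limit in the mean and every replicate; three in four hits are not shown here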
# Target sequence (Q9HCT0 whole entry, looked up): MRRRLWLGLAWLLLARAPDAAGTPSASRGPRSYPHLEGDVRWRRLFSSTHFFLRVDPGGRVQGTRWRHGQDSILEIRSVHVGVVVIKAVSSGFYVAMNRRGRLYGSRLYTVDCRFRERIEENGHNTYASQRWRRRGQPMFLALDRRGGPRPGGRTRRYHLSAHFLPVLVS
# Calls only; i = inactive. Not all compounds are listed, so the mix of outcomes need not match the whole.
SMILES,FGF22 binding
C[C@@H]1CN([C@H](C)CO)C(=O)c2cc(C#CCN(C)C)cnc2O[C@H]1CN(C)Cc1ccc(F)cc1,i
O=C(CC1CC1)Nc1ccc2c(c1)[C@H]1C[C@@H](CC(=O)NC3CCCC3)O[C@H](CO)[C@H]1O2,i
Cc1ccc(NC(=O)OCCN(C)C(=O)Nc2ccc(C)cc2C)c(C)c1,i
CC=Cc1ccc2n(c1=O)C[C@@H]1[C@@H](CO)[C@H](C(=O)NC3CCCC3)N(Cc3ccncc3)[C@H]21 (mixture of isomers),i
C=CCN1C[C@H](COC(=O)c2ccc(C)c(C)c2)Oc2cccc(F)c2S1(=O)=O,i
COc1cccc(S(=O)(=O)N[C@H]2C=C[C@@H](CC(=O)NC3CCC3)O[C@H]2CO)c1,i
COc1ccc(S(=O)(=O)Nc2cccc3c2O[C@H](CN(C)Cc2ccc4c(c2)OCO4)[C@H](C)CN([C@@H](C)CO)C3=O)cc1,i
O=C(c1ccncc1)N1CC[C@@H]2[C@H](CO)Nc3ccc(Br)cc3[C@@H]21,i
O=C(C[C@@H]1CC[C@H]2[C@@H](COC[C@@H](O)CN2C(=O)c2cccnc2)O1)NCc1ccccc1,i
C[C@@H]1CN([C@H](C)CO)C(=O)c2cc(C#Cc3ccc(F)cc3)cnc2O[C@H]1CN(C)C,i
CCCCCN(C(=O)CCc1cn(CCCCC)c2ccccc12)c1ccc(Oc2cccnc2)cc1,i
CO[C@H]1CN(C)C(=O)c2ccc(NC(=O)Nc3ccccc3F)cc2OC[C@H](C)N(CC2CC2)C[C@H]1C,i
CO[C@H]1CN(C)C(=O)c2cc(NC(C)=O)ccc2OC[C@@H](C)N(C(=O)c2ccccc2)C[C@H]1C,i
C[C@@H]1CN([C@@H](C)CO)C(=O)c2cc(NC(=O)Cc3cn(C)c4ccccc34)ccc2O[C@H]1CN(C)S(=O)(=O)c1ccc(F)cc1,i
O=C(C[C@@H]1CC[C@H]2[C@@H](COC[C@@H](O)CN2C(=O)c2cnccn2)O1)N1CCN(c2ccccc2)CC1,i
O=C(Nc1ccc(Cl)cc1)OCC12COCN1COC2,i
C[C@@H]1CN([C@H](C)CO)C(=O)Cc2cc(NC(=O)Nc3ccc4c(c3)OCO4)ccc2O[C@@H]1CN(C)Cc1ccccc1,i
O=C(C[C@H]1CC[C@H]2[C@@H](COC[C@@H](O)CN2C(=O)Nc2cccc(Cl)c2)O1)NCC1CCCCC1,i
O=C(C[C@@H]1C[C@@H]2c3cc(NS(=O)(=O)c4ccccc4)ccc3O[C@@H]2[C@H](CO)O1)NC1CCCC1,i
COC(=O)C[C@H]1CC[C@@H]2[C@@H](COc3ccc(NC(=O)Nc4ccc(C)cc4)cc3C(=O)N2C)O1,i
COc1ccc2c3c([nH]c2c1)[C@@H](CO)N(S(=O)(=O)c1ccccc1)CC31CCN(C)CC1,i
COc1ccccc1-c1ccc2n(c1=O)C[C@@H]1[C@@H](CO)[C@H](C(=O)N3CCN(C)CC3)[C@H]2N1CC1CC1,i
COc1ccc(NC(=O)Nc2ccc3c(c2)CC(=O)N([C@@H](C)CO)C[C@H](C)[C@@H](CN(C)S(=O)(=O)c2ccc(C)cc2)O3)cc1,i
C[C@@H]1CN([C@@H](C)CO)C(=O)c2cc(NC(=O)CCCN(C)C)ccc2O[C@@H]1CN(C)C(=O)Nc1cccc2ccccc12,i
C[C@H]1CN([C@@H](C)CO)C(=O)c2cc(NS(=O)(=O)c3cn(C)cn3)ccc2O[C@H]1CN(C)C,i
# (further entries)
SMILES,FGF22 binding
COc1ccc(NC(=O)N(C)C[C@H]2Oc3ccc(NC(=O)Nc4cccc5ccccc45)cc3C(=O)N([C@H](C)CO)C[C@H]2C)cc1,i
Cc1noc(C)c1NC(=O)Nc1ccc2c(c1)C(=O)N([C@H](C)CO)C[C@H](C)[C@H](CN(C)C(=O)Nc1ccc3c(c1)OCO3)O2,i
C[C@@H]1CN([C@@H](C)CO)C(=O)c2c(c3ccccc3n2C)-c2ccccc2CO[C@@H]1CN(C)Cc1ccc2c(c1)OCO2,i
CCCNC(=O)N(C)C[C@H]1Oc2cc(C#CC(C)C)ccc2S(=O)(=O)N([C@@H](C)CO)C[C@@H]1C,i
COc1cccc(C#Cc2ccc3c(c2)[C@H]2[C@H](CCN2S(=O)(=O)c2ccc(C)cc2)[C@H](CO)N3)c1,i
CN(C)C(=O)C[C@H]1CC[C@H]2[C@@H](COc3ccc(NC(=O)c4cnccn4)cc3C(=O)N2C)O1,i
COc1ccc(NC(=O)N(C)C[C@H]2Oc3ccc(NC(=O)C4CCCCC4)cc3CC(=O)N([C@@H](C)CO)C[C@@H]2C)cc1,i
CC(C)CC#Cc1ccc2c(c1)O[C@H](CN(C)Cc1cccnc1)[C@@H](C)CN([C@H](C)CO)S2(=O)=O,i
CO[C@@H]1CN(C)C(=O)c2cc(NC(=O)C3CCOCC3)ccc2OC[C@@H](C)N(C(=O)C2CCOCC2)C[C@H]1C,i
O=C(C[C@@H]1C=C[C@H](NC(=O)C2CCC2)[C@@H](CO)O1)NCc1ccccc1Cl,i
CCCC#Cc1ccc2c(c1)O[C@@H](CN(C)CC1CC1)[C@@H](C)CN([C@@H](C)CO)S2(=O)=O,i
N#C[C@@H]1[C@@H](c2ccc(/C=C/c3ccccc3)cc2)[C@@H](CO)N1C(=O)C1CCC1,i
CN(C)C(=O)c1ccc(-c2ccc([C@H]3[C@H]4CN(C(=O)C5CCC5)CCCCN4[C@H]3CO)cc2)cc1,i
CO[C@H]1CN(C)C(=O)c2ccc(NC(C)=O)cc2OC[C@@H](C)N(S(C)(=O)=O)C[C@@H]1C,i
C[C@H]1CCCCO[C@@H](CN(C)C(=O)NC2CCCCC2)[C@@H](C)CN([C@@H](C)CO)C(=O)c2cc(NC(=O)c3ccncc3)ccc2O1,i
CO[C@@H]1CN(C)C(=O)c2ccc(NS(C)(=O)=O)cc2OC[C@H](C)N(C(=O)CC2CC2)C[C@H]1C,i
C[C@H](CO)N1C[C@H](C)[C@@H](CN(C)C)Oc2ccc(NS(=O)(=O)c3ccccc3)cc2C1=O,i
C[C@@H]1CN([C@H](C)CO)S(=O)(=O)c2ccc(C#CC3CCCC3)cc2O[C@@H]1CN(C)C,i
O=C(C[C@@H]1CC[C@@H](NC(=O)C2CC2)[C@@H](CO)O1)NCC1CC1,i
CCC(=O)N[C@@H]1CC[C@H](CCNS(=O)(=O)c2ccc(Cl)cc2)O[C@H]1CO,i
C[C@H]1CN([C@@H](C)CO)C(=O)c2cc(NC(=O)Cc3ccccc3)ccc2O[C@@H]1CN(C)CC1CCCCC1,i
CO[C@@H]1CN(C)C(=O)c2ccc(NC(=O)Cc3ccccc3)cc2OC[C@H](C)NC[C@H]1C,i
CNC[C@@H]1Oc2ccc(NC(=O)Nc3ccc(OC)cc3)cc2CC(=O)N([C@H](C)CO)C[C@@H]1C,i
Cc1noc(C)c1S(=O)(=O)N(C)C[C@@H]1OCCCC[C@H](C)Oc2ccc(NC(=O)NC(C)C)cc2C(=O)N([C@H](C)CO)C[C@H]1C,i
C[C@H](NC(=O)C[C@H]1C=C[C@H](NC(=O)c2cccnc2)[C@@H](CO)O1)c1ccccc1,i

# Structural class, the entries above with fluorine (5)
SMILES,FGF22 binding
C[C@@H]1CN([C@H](C)CO)C(=O)c2cc(C#CCN(C)C)cnc2O[C@H]1CN(C)Cc1ccc(F)cc1,i
C=CCN1C[C@H](COC(=O)c2ccc(C)c(C)c2)Oc2cccc(F)c2S1(=O)=O,i
C[C@@H]1CN([C@H](C)CO)C(=O)c2cc(C#Cc3ccc(F)cc3)cnc2O[C@H]1CN(C)C,i
CO[C@H]1CN(C)C(=O)c2ccc(NC(=O)Nc3ccccc3F)cc2OC[C@H](C)N(CC2CC2)C[C@H]1C,i
C[C@@H]1CN([C@@H](C)CO)C(=O)c2cc(NC(=O)Cc3cn(C)c4ccccc34)ccc2O[C@H]1CN(C)S(=O)(=O)c1ccc(F)cc1,i

# The main list resumes, starting four compounds before the break.
SMILES,FGF22 binding
CO[C@@H]1CN(C)C(=O)c2ccc(NC(=O)Cc3ccccc3)cc2OC[C@H](C)NC[C@H]1C,i
CNC[C@@H]1Oc2ccc(NC(=O)Nc3ccc(OC)cc3)cc2CC(=O)N([C@H](C)CO)C[C@@H]1C,i
Cc1noc(C)c1S(=O)(=O)N(C)C[C@@H]1OCCCC[C@H](C)Oc2ccc(NC(=O)NC(C)C)cc2C(=O)N([C@H](C)CO)C[C@H]1C,i
C[C@H](NC(=O)C[C@H]1C=C[C@H](NC(=O)c2cccnc2)[C@@H](CO)O1)c1ccccc1,i
COCC(=O)Nc1ccc2c(c1)C(=O)N(C)C[C@H](OC)[C@@H](C)CN(C(=O)c1ccccc1)[C@@H](C)CO2,i
CCC(=O)N1CC[C@@H]2[C@@H](CO)Nc3ccc(C#Cc4ccc(F)cc4)cc3[C@@H]21,i
C[C@@H]1CN([C@@H](C)CO)C(=O)c2cc(NC(=O)C3CCCCC3)ccc2O[C@@H](C)CCCCO[C@@H]1CN(C)C(=O)c1ccccc1,i
CO[C@@H]1CN(C)C(=O)c2ccc(NC(=O)C3CC3)cc2OC[C@H](C)N(Cc2ccncc2)C[C@H]1C,i
C[C@@H]1CN([C@H](C)CO)C(=O)Cc2cc(NC(=O)C3CCCCC3)ccc2O[C@H]1CN(C)CC1CCCCC1,i
C[C@@H]1CN([C@H](C)CO)C(=O)c2cc(NC(=O)Cc3ccccc3)ccc2O[C@@H](C)CCCCO[C@@H]1CN(C)C(=O)Nc1cccc2ccccc12,i
O=C(C[C@@H]1C=C[C@@H](NC(=O)NC2CCCCC2)[C@H](CO)O1)NCc1ccc(Cl)cc1,i
OC[C@@H]1[C@H](c2ccc(-c3ccc(F)cc3)cc2)[C@H]2CN(Cc3cccnc3)CCCCN12,i
COc1cccc(C#Cc2ccc([C@@H]3[C@H](CO)N4C(=O)CN(S(=O)(=O)c5ccccc5C)C[C@@H]34)cc2)c1,i
O=C(N[C@H]1CC[C@@H](CC(=O)N2CCc3ccccc3C2)O[C@@H]1CO)C1CCOCC1,i
O=C(c1ccccn1)N1CC[C@@H]2[C@H]1c1cc(Br)ccc1N[C@@H]2CO,i
C[C@H](CO)N1C[C@H](C)[C@H](CN(C)Cc2ccncc2)Oc2ccc(NC(=O)C3CCCCC3)cc2CC1=O,i
COc1ccccc1S(=O)(=O)N[C@H]1CC[C@H](CCn2cc(C3CCCCC3)nn2)O[C@@H]1CO,i
CN(C)CC#Cc1ccc([C@H]2[C@H]3CN(C(=O)CN(C)C)CCCCN3[C@H]2CO)cc1,i
COc1ccc(NC(=O)Nc2ccc3c(c2)C(=O)N([C@@H](C)CO)C[C@@H](C)[C@H](CN(C)Cc2ccc(C(=O)O)cc2)O3)cc1,i
C[C@@H]1CN([C@H](C)CO)C(=O)c2cccc(NC(=O)CCCCCC(=O)Nc3ccccc3N)c2O[C@@H]1CN(C)S(=O)(=O)c1ccccc1,i
Cc1ccccc1S(=O)(=O)N1CC[C@@H]2[C@@H](CO)N(C)c3ccc(Br)cc3[C@@H]21,i
CC=Cc1ccc2n(c1=O)C[C@H]1[C@H](CO)[C@@H](C(=O)NCCC)[C@@H]2N1Cc1ccccc1OC (mixture of isomers),i
COc1cccc(-c2ccc([C@@H]3[C@H](C#N)N(C(=O)Cc4ccccc4)[C@H]3CO)cc2)c1,i
CO[C@@H]1CN(C)C(=O)c2cc(NC(C)=O)ccc2OC[C@H](C)N(S(=O)(=O)c2cn(C)cn2)C[C@H]1C,i
COc1ccc2c3c([nH]c2c1)[C@H](CO)N(C(C)=O)CC31CCN(S(=O)(=O)c2ccccc2)CC1,i
C[C@@H]1CN([C@H](C)CO)C(=O)c2cc(NS(=O)(=O)c3ccccc3)ccc2O[C@@H](C)CCCCO[C@@H]1CN(C)C(=O)c1ccccc1,i
COc1ccc(NC(=O)N(C)C[C@H]2Oc3ncc(C4=CCCC4)cc3C(=O)N([C@@H](C)CO)C[C@@H]2C)cc1,i
CN1C(=O)c2cc(NC(=O)Nc3ccccc3Cl)ccc2OC[C@H]2O[C@H](CC(=O)O)CC[C@H]21,i
C[C@@H]1CN([C@@H](C)CO)C(=O)Cc2cc(NC(=O)CCCCCC(=O)Nc3ccccc3N)ccc2O[C@@H]1CN(C)Cc1ccc2c(c1)OCO2,i
# Next section.
SMILES,FGF22 binding
C[C@H](CO)N1C[C@H](C)[C@H](CN(C)C(=O)[C@@H](Cc2ccccc2)N(C)C)OCc2ccccc2-c2c(n(C)c3ccccc23)C1=O,i
C[C@@H]1CN([C@@H](C)CO)C(=O)c2cc(NC(=O)c3ccncc3)ccc2O[C@H]1CN(C)Cc1ccc(Cl)c(Cl)c1,i
C[C@@H]1CN([C@H](C)CO)C(=O)c2cc(NC(=O)Nc3ccccc3)ccc2O[C@@H](C)CCCCO[C@@H]1CN(C)S(=O)(=O)c1cccs1,i
CO[C@@H]1CN(C)C(=O)c2ccc(NC(=O)NC(C)C)cc2OC[C@H](C)N(C(=O)CN(C)C)C[C@H]1C,i
OC(c1ccccc1)(c1ccccc1)C1CCN(CCCOc2ccc(-c3ccc(F)cc3F)cc2)CC1,i
O=C(C[C@H]1C[C@H]2c3cc(NC(=O)Nc4ccccc4F)ccc3O[C@H]2[C@H](CO)O1)NCc1ccc2c(c1)OCO2,i
C[C@@H]1CN([C@H](C)CO)C(=O)c2cc(NC(=O)Cc3ccccc3)ccc2O[C@@H](C)CCCCO[C@H]1CN(C)C(=O)c1ccccc1,i
CC(C)C#Cc1ccc([C@@H]2[C@H](CO)N3CCCCN(C(=O)NC(C)C)C[C@@H]23)cc1,i
C[C@@H]1CCCCO[C@H](CN(C)C(=O)CCC(F)(F)F)[C@@H](C)CN([C@@H](C)CO)C(=O)c2cc(NS(=O)(=O)c3ccccc3)ccc2O1,i
CN(C)Cc1cn(CC[C@H]2CC[C@H](NS(=O)(=O)c3ccc(-c4ccccc4)cc3)[C@H](CO)O2)nn1,i
C[C@H]1CN([C@@H](C)CO)S(=O)(=O)c2ccc(C#CC(C)(C)O)cc2O[C@H]1CN(C)C(=O)CN(C)C,i
